From PubChem
KCNQ2 block – KCNQ2 potassium channel inhibitors, primary screen, cell-based, CHO-K1, FluxOR thallium flux, B-score (AID 2156); 20 min; hits give low values; only compounds with negative scores are shown here; some inactives read as strong as hits; B-score at 10 µM; hit rate 1.1% among 310,000; O88943;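 active = fluorescence ratio B-score at most minus 3 library SDs, with starting brightness B-score within 2 library SDs, cut at about -5.5 in these data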
Target sequence (O88943 whole entry, looked up): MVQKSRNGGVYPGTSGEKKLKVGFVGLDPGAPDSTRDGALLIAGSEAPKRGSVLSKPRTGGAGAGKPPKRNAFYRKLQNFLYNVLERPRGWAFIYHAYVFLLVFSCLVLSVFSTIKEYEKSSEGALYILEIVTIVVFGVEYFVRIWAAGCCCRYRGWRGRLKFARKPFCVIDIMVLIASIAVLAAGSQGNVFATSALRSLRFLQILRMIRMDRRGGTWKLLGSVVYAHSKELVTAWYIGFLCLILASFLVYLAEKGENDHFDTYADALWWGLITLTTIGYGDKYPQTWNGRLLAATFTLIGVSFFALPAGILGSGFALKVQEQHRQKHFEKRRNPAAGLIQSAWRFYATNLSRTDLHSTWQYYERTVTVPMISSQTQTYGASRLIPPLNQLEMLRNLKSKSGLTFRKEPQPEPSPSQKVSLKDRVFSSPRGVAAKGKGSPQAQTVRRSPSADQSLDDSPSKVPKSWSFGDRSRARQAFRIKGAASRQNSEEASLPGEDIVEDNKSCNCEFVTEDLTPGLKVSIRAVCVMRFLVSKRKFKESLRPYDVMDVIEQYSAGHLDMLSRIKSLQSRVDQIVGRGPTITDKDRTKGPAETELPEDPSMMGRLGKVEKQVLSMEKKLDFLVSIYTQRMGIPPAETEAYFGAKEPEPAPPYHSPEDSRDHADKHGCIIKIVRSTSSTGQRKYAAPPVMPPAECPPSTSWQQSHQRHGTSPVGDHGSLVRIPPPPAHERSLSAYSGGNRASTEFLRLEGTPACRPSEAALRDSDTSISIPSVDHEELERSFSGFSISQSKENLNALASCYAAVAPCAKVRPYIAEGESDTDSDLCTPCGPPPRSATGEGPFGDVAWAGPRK
KCNQ2 block baseline – recorded beside KCNQ2 block, whose call it bears; B-score; measured here: initial fluorescence intensity artifact check;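 brightness before thallium and not channel activity; 0 = typical well and far values either way flag optical interference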
* marks the source's active call; other numbers are inactive results. Some of the compounds tested; rates above refer to the full screens.

Results for Cc1nnc(SCC(=O)N(C2CCCCC2)C2CCS(=O)(=O)C2)n1N (configuration not stated) ?
KCNQ2 block: inactive; KCNQ2 block baseline: 2.9

What do the screens show for `N#C/C(=C(/O)c1cccs1)c1nnc2n1CCCCC2`?
KCNQ2 block: inactive; KCNQ2 block baseline: -2.9

How did Fc1ccccc1NC(=S)NN(Cc1ccccc1)c1ccccc1 do in these assays?
KCNQ2 block: inactive; KCNQ2 block baseline: -2.2

Results for O=C(COC(=O)c1n[nH]c2ccccc12)c1cccc(Br)c1 ?
KCNQ2 block: inactive; KCNQ2 block baseline: -0.68

How did O=C(Nc1cccc(CCc2ccccn2)c1)c1ccc(Cl)cc1 do in these assays?
KCNQ2 block: inactive; KCNQ2 block baseline: 0.93

How did CC1(C)CC(=O)C(C2C3=C(CC(C)(C)CC3=O)Oc3c(Br)cc(Br)cc32)=C(O)C1 (configuration not stated) do in these assays?
KCNQ2 block: inactive; KCNQ2 block baseline: 0.73

What do the screens show for `O=C(C1=C[C@H](c2ccc3c(c2)OCO3)C[C@H](OCCCCO)O1)N1CCN(Cc2ccc3c(c2)OCO3)CC1`?
KCNQ2 block: inactive; KCNQ2 block baseline: -1.8

How did Cc1oc2ccccc2c1-c1cn2c(n1)SCC2 do in these assays?
KCNQ2 block: inactive; KCNQ2 block baseline: -0.05

What do the screens show for `O=C(COc1ccc(/C=N/NS(=O)(=O)c2ccccc2)cc1)N1CCOCC1`?
KCNQ2 block: inactive; KCNQ2 block baseline: -0.54

What do the screens show for `CC(Sc1ncc(C(F)(F)F)cc1Cl)C(=O)NC(N)=O` (configuration not stated)?
KCNQ2 block: inactive; KCNQ2 block baseline: -2

What do the screens show for `COc1ccccc1C(OC(=O)c1cccs1)C(=O)NCc1ccco1` (configuration not stated)?
KCNQ2 block: inactive; KCNQ2 block baseline: 0.97

What do the screens show for `CCN(CC(=O)Nc1ccccc1OC)C(=O)CCc1ccccc1`?
KCNQ2 block: inactive; KCNQ2 block baseline: 1.9

What do the screens show for `O=C(Nc1cccnc1)c1cc(-c2cccc(Br)c2)nc2ccccc12`?
KCNQ2 block: -6.7*; KCNQ2 block baseline: 0.1*

Results for COC(=O)c1cc2ccsc2n1CC(=O)N(C)c1ccccc1 ?
KCNQ2 block: inactive; KCNQ2 block baseline: -0.83

How did COc1ccc(Cl)cc1C(=O)Nc1nc2ccc(S(C)(=O)=O)cc2s1 do in these assays?
KCNQ2 block: inactive; KCNQ2 block baseline: -0.13

How did O=C(CCC1CCCCC1)Nc1ncn[nH]1 do in these assays?
KCNQ2 block: inactive; KCNQ2 block baseline: -0.58

How did COc1ccccc1NC(=O)C1=C(C)NC(SCC(=O)Nc2ccc(C(=O)O)cc2)=C(C#N)C1c1cccs1 (configuration not stated) do in these assays?
KCNQ2 block: inactive; KCNQ2 block baseline: -0.01

Results for CCC(C)(C)NC(=O)c1ccccc1Oc1ccccc1 ?
KCNQ2 block: inactive; KCNQ2 block baseline: 1.7

What do the screens show for `O=c1c2ccccc2nnn1Cc1ccc(Br)cc1`?
KCNQ2 block: inactive; KCNQ2 block baseline: -0.18

Results for CCOC(=O)c1ccc(NC(=O)COc2ccccc2CNCCO)cc1 ?
KCNQ2 block: inactive; KCNQ2 block baseline: -0.54

Random excerpt: seven compounds from above, in no set order.
How did COc1ccccc1NC(=O)C1=C(C)NC(SCC(=O)Nc2ccc(C(=O)O)cc2)=C(C#N)C1c1cccs1 (configuration not stated) do in these assays?
KCNQ2 block: inactive; KCNQ2 block baseline: -0.01

How did COc1ccc(Cl)cc1C(=O)Nc1nc2ccc(S(C)(=O)=O)cc2s1 do in these assays?
KCNQ2 block: inactive; KCNQ2 block baseline: -0.13

How did O=C(CCC1CCCCC1)Nc1ncn[nH]1 do in these assays?
KCNQ2 block: inactive; KCNQ2 block baseline: -0.58

What do the screens show for `O=c1c2ccccc2nnn1Cc1ccc(Br)cc1`?
KCNQ2 block: inactive; KCNQ2 block baseline: -0.18

What do the screens show for `CCN(CC(=O)Nc1ccccc1OC)C(=O)CCc1ccccc1`?
KCNQ2 block: inactive; KCNQ2 block baseline: 1.9

Results for CCOC(=O)c1ccc(NC(=O)COc2ccccc2CNCCO)cc1 ?
KCNQ2 block: inactive; KCNQ2 block baseline: -0.54

What do the screens show for `O=C(Nc1cccnc1)c1cc(-c2cccc(Br)c2)nc2ccccc12`?
KCNQ2 block: -6.7*; KCNQ2 block baseline: 0.1*

Continuation.
Results for CC1CCCCC1NC(=O)c1cc2ccccc2o1 (configuration not stated) ?
KCNQ2 block: inactive; KCNQ2 block baseline: 0.4

What do the screens show for `COc1cccc(/C=C2/SC(=S)N(CC(=O)NNC(=O)c3ccccc3O)C2=O)c1`?
KCNQ2 block: inactive; KCNQ2 block baseline: -0.68

How did Cc1ccc(C)c(N2CCN(c3nc4ccccc4c(=O)n3Cc3ccccc3)CC2)c1 do in these assays?
KCNQ2 block: inactive; KCNQ2 block baseline: -1.6

How did O=[N+]([O-])c1cccc(Cl)c1NCCNc1ncc(C(F)(F)F)cc1Cl do in these assays?
KCNQ2 block: inactive; KCNQ2 block baseline: -0.22

What do the screens show for `O=C(CCN1CCC(c2ccccc2)C1)c1ccccc1` (configuration not stated)?
KCNQ2 block: inactive; KCNQ2 block baseline: -0.26

What do the screens show for `Cc1cc(NC(=O)CSc2nnc(-c3cccnc3)n2Cc2ccccc2)no1`?
KCNQ2 block: inactive; KCNQ2 block baseline: -1.1

Results for O=C(Nc1ccccc1N1CCCC1)c1ccccc1F ?
KCNQ2 block: inactive; KCNQ2 block baseline: 0.49

Results for COc1ccc(C(=O)/C(=C/c2cccs2)c2nc3ccccc3o2)cc1 ?
KCNQ2 block: inactive; KCNQ2 block baseline: -0.19

Results for O=C(Nc1ccc(Cn2ccnc2)cc1)c1cccc(C(F)(F)F)c1 ?
KCNQ2 block: inactive; KCNQ2 block baseline: 0.99

Results for Cc1nonc1CN(C)C(=O)c1ccc(OC2CCN(Cc3ccccn3)CC2)cc1 ?
KCNQ2 block: inactive; KCNQ2 block baseline: 1.4

What do the screens show for `CN(CCOc1ccc(Cl)cc1)C(=O)c1ccc2c(=O)n3c(nc2c1)CCC3`?
KCNQ2 block: inactive; KCNQ2 block baseline: -0.37

What do the screens show for `O=C(/C=C/c1ccccc1)NCCS(=O)(=O)N1CCN(c2ccccc2)CC1`?
KCNQ2 block: inactive; KCNQ2 block baseline: 2.3

What do the screens show for `CCc1ccc(OCCOCC(O)CN(CCO)CCO)cc1` (configuration not stated)?
KCNQ2 block: inactive; KCNQ2 block baseline: -0.27

How did CCOC(=O)C1CCCN(C(=O)c2cc(S(=O)(=O)N3CCCCC3)ccc2Cl)C1 (configuration not stated) do in these assays?
KCNQ2 block: inactive; KCNQ2 block baseline: 0.01

How did Cc1cccc(C2Nc3ccccc3C(=O)N2c2ccc(F)cc2)n1 (configuration not stated) do in these assays?
KCNQ2 block: inactive; KCNQ2 block baseline: -0.48

How did OC12CCCCC1C(c1ccc3c(c1)OCO3)N(Cc1ccc(F)cc1)CC2 (configuration not stated) do in these assays?
KCNQ2 block: inactive; KCNQ2 block baseline: 1.3

What do the screens show for `O=C(Nc1ccc(F)c(Cl)c1)c1ccc2c(c1)OCO2`?
KCNQ2 block: inactive; KCNQ2 block baseline: -0.63

What do the screens show for `CS(=O)(=O)N1CCN(c2ccc([N+](=O)[O-])c(NCc3cccnc3)c2)CC1`?
KCNQ2 block: inactive; KCNQ2 block baseline: -0.65

What do the screens show for `CC12CCC(=O)N1C(C(=O)N1CCN(c3ccccc3)CC1)CS2` (configuration not stated)?
KCNQ2 block: inactive; KCNQ2 block baseline: 0.63

Results for O=Cc1cn[nH]c1-c1ccccc1 ?
KCNQ2 block: inactive; KCNQ2 block baseline: -0.01

What do the screens show for `Cc1nn(-c2ccccc2)c2c1C(c1ccncc1)C(C#N)=C(N)O2` (configuration not stated)?
KCNQ2 block: inactive; KCNQ2 block baseline: 1.1

How did CCC/C=C(\CCC)C(NS(=O)(=O)c1cccc2cccnc12)c1ccc(C(=O)OC)cc1 (configuration not stated) do in these assays?
KCNQ2 block: inactive; KCNQ2 block baseline: -0.26

What do the screens show for `CSc1ncc(C(=O)Nc2cccnc2)c(C(F)(F)F)n1`?
KCNQ2 block: inactive; KCNQ2 block baseline: -1.6

What do the screens show for `CCNC(=O)c1c(NC(=O)c2cc(-c3cc(C)ccc3O)n[nH]2)sc2c1CCCC2`?
KCNQ2 block: inactive; KCNQ2 block baseline: -0.82

What do the screens show for `COCCSc1nnc(NS(=O)(=O)c2ccc(C)cc2)s1`?
KCNQ2 block: inactive; KCNQ2 block baseline: 0.23

How did CCOC(=O)c1sc(=NC(=O)c2ccc(OC)c(OC)c2)n(C)c1C do in these assays?
KCNQ2 block: inactive; KCNQ2 block baseline: 2.1

Results for COC(=O)c1ccc2c(c1)nc(C)n2CCO ?
KCNQ2 block: inactive; KCNQ2 block baseline: 0.33

Results for CCc1ccc(N(C(=O)c2csnn2)C(C(=O)NC(C)(C)C)c2ccccn2)cc1 (configuration not stated) ?
KCNQ2 block: inactive; KCNQ2 block baseline: 1.2

How did O=c1cc(CO)occ1OCc1cccc(C(F)(F)F)c1 do in these assays?
KCNQ2 block: inactive; KCNQ2 block baseline: 1

What do the screens show for `COc1ccc(CNC(=O)CN(C)Cc2ccc(C(C)(C)C)cc2)cc1`?
KCNQ2 block: inactive; KCNQ2 block baseline: 0.95

What do the screens show for `COc1ccc(C(=O)c2c(-c3ccc(OC)cc3)oc3ccc(-c4ccc(OC)nc4)cc23)cc1`?
KCNQ2 block: inactive; KCNQ2 block baseline: -2.3

Results for CC1(C)CN=C(N(Cc2ccccc2)C(=O)Nc2ccccc2)S1 ?
KCNQ2 block: -6.4*; KCNQ2 block baseline: 0.92*

Results for O=[N+]([O-])c1ccc(OCCn2cnc3ccccc32)cc1 ?
KCNQ2 block: inactive; KCNQ2 block baseline: -0.37

What do the screens show for `COc1ccc(C(CCN)Cc2ccccc2)cc1` (configuration not stated)?
KCNQ2 block: inactive; KCNQ2 block baseline: 0.37

Results for O=C(NC1CCN(Cc2ccccc2)CC1)C(NS(=O)(=O)c1cccc2nsnc12)c1ccccc1 (configuration not stated) ?
KCNQ2 block: inactive; KCNQ2 block baseline: -1.1

Results for O=C(CCS(=O)(=O)c1ccc(Cl)cc1)Nc1ccc(N2CCOCC2)cc1 ?
KCNQ2 block: inactive; KCNQ2 block baseline: 1.5

What do the screens show for `C=C(C)c1cccc(C(C)(C)NC(=O)N2CC(C)OC(C)C2)c1` (configuration not stated)?
KCNQ2 block: inactive; KCNQ2 block baseline: -0.19

What do the screens show for `O=C(CCCO)NC1Cc2ccccc2C1`?
KCNQ2 block: inactive; KCNQ2 block baseline: -0.86

How did COc1ccc(NS(=O)(=O)c2ccc3oc(SC4CCOC4=O)nc3c2)cc1 (configuration not stated) do in these assays?
KCNQ2 block: inactive; KCNQ2 block baseline: -0.78

Results for CCOc1ccc(C(=O)Nc2nc(C)cc(C)n2)cc1[N+](=O)[O-] ?
KCNQ2 block: inactive; KCNQ2 block baseline: 1.6

How did CC1CC(C)CN(S(=O)(=O)c2ccc(C(C)(C)C)cc2)C1 (configuration not stated) do in these assays?
KCNQ2 block: inactive; KCNQ2 block baseline: 0.1

Results for O=[N+]([O-])c1nn(-c2ccc3c(c2)OCCO3)n(O)c1=NCc1ccccc1Cl ?
KCNQ2 block: inactive; KCNQ2 block baseline: 2

Results for Cc1c([N+](=O)[O-])cnc(Sc2ccccc2)c1[N+](=O)[O-] ?
KCNQ2 block: inactive; KCNQ2 block baseline: -0.8

Results for O=C(OCC(=O)N1CCCC1)c1ccccc1O ?
KCNQ2 block: inactive; KCNQ2 block baseline: 1.9

What do the screens show for `COC(=O)Cn1c(C)c(C(C)=O)c(C(C)=O)c1C`?
KCNQ2 block: inactive; KCNQ2 block baseline: 0.14

What do the screens show for `CCN(CC)C(=O)COc1cc(C)c(Cl)c(C)c1`?
KCNQ2 block: inactive; KCNQ2 block baseline: 1.6

Results for O=C1CC(N2CCN(Cc3ccccc3)CC2)C(=O)N1 (configuration not stated) ?
KCNQ2 block: inactive; KCNQ2 block baseline: -0.01

How did COc1ccc(S(=O)(=O)Nc2nnc(Cc3ccc(OC)c(OC)c3)s2)cc1 do in these assays?
KCNQ2 block: inactive; KCNQ2 block baseline: 0.69

Results for O=C(Nc1ccccc1N1CCOCC1)c1cc(-c2ccco2)nc2ccccc12 ?
KCNQ2 block: -7*; KCNQ2 block baseline: -0.23*

Results for O=C(COC(=O)c1cc[n+]([O-])cc1)Nc1ccc(F)c([N+](=O)[O-])c1 ?
KCNQ2 block: inactive; KCNQ2 block baseline: -1.7

Results for CCOC(=O)C1CCN(C(=O)c2cc3c(s2)-c2ccccc2OC3)CC1 ?
KCNQ2 block: inactive; KCNQ2 block baseline: 0.11

How did O=C(NCc1ccco1)c1nc2ccccc2s1 do in these assays?
KCNQ2 block: inactive; KCNQ2 block baseline: 1.2

How did Cn1nc(C(F)(F)F)c(-c2ccccc2)c1NC(=O)c1ccco1 do in these assays?
KCNQ2 block: inactive; KCNQ2 block baseline: 1
